Bioassay records: PubChem, several laboratories
LANA-H2B inh – blocks KSHV LANA binding to histone H2A/H2B; 320,000 compounds, 0.6% hits; cell-free LANA-H2A/H2B peptide, fluorescence polarization; inhibition, % (concentration not given with the values); Q9QR71; in the data active = inhibition mostly above about 10%, no sharp cut-off; inactive = mostly below about 6.7%;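 note: stock transfer was 7.5 nL into about 10 µL; 0% = median of vehicle wells and 100% = median of positive control wells; one replicate is shown; the record names a cut of 25% in any replicate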
Beta2AR agonist – activates human beta-2 adrenergic receptor causing internalization | P07550 | Am2.2-beta2AR cells, FAP receptor internalization, flow cytometry; reference of the scale not given here | response, % (concentration not given with the values) | 340,000 compounds, 0.43% hits | AID 504454;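 active = response above a set limit, near 3 SD of response in nonfluorescent compounds, cut at about 42% in these data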;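 note: stock transfer was 100 nL into about 11 µL; a reference agonist was the positive control; negative values mostly stem from fluorescent compounds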
Target sequence (P07550 whole entry, looked up): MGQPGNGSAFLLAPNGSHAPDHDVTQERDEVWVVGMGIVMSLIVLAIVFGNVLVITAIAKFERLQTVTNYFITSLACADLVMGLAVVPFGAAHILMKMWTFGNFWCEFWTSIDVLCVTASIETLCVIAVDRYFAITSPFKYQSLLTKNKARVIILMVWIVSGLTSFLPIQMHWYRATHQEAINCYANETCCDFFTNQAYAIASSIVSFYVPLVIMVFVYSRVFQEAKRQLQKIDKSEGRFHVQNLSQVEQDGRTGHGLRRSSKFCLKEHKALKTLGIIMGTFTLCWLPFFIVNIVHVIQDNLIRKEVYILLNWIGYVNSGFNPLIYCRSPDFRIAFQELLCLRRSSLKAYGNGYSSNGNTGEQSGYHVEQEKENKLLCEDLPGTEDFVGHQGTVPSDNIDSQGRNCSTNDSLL
RanGTP-Impb inh – disruptors of Ran-importin-beta complex formation – biochemical, FRET, CFP-Ran, YFP-importin-beta, homogeneous, primary screen; 300,000 compounds, 1.1% hits; inhibition, % (concentration not given with the values); cell-free CFP-Ran/YFP-importin-beta FRET ratio; AID 2216;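 active = most replicates above 15%; inconclusive = exactly half above 15%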;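 note: 0% = DMSO wells and 100% = Ran loaded with GDP instead of GTP; wells of about 40 µL received 100 nL stock; the first replicate is given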
T cruzi inh – T. cruzi replication inhibition; T. cruzi beta-gal in NIH3T3, luminescence, 90 h; inhibition, % (concentration not given with the values); 300,000 compounds, 1.4% hits;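 active = mean inhibition across valid replicates above about 55%, limit read from the data; inconclusive = mean below that limit but half or more replicates reach it; inactive = mean below it, under half of replicates reach it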;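 note: signal also drops with host cell toxicity which is not excluded here; 0% = plate median of DMSO wells and 100% = zero luminescence signal; higher percent means less beta-gal luminescence so fewer parasites; stock transfer was 50 nL into about 50 µL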
Bfl-1 A1 inh – inhibitors of the anti-apoptotic protein A1, read as caspase activation. MEF A1-2A-BIM cells, Caspase-Glo 3/7 luminescence, 3 h; percent of clofoctol response, vehicle zero. caspase activation, % (concentration not given with the values). 330,000 compounds, 0.066% hits. AID 2462;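 active = over half of replicate activation scores above 10%, or exactly half above 10 with the replicate mean above 10; inconclusive = replicate mean below 10 yet half the replicates above 10; inactive = over half of replicates below 10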;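 note: wells of about 30 µL received 50 nL stock; many hits fall short of the cut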
Beta cell apopt – beta cell apoptosis inhibition; INS-1E cytokine-induced death, ATP luminescence, 48 h; percent of positive-control rescue, neutral wells zero; protection from apoptosis, % (test concentration not listed); 300,000 compounds, 0.8% hits;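 active = all replicates at 75% or more, or half of them and the mean; inconclusive = half reach 75% but not the mean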;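 note: 0% = cytokine-treated negative control wells and 100% = positive control rescue; higher means more ATP so stronger rescue from cytokine killing; wells of about 40 µL received 100 nL stock; the first replicate is given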
Calb FLC – affects C. albicans growth with fluconazole | 300,000 compounds, 0.57% hits | C. albicans CaCi-2 (fluconazole-resistant clinical isolate) + fluconazole, Alamar Blue growth, 48 h | AID 1979 | growth inhibition, % (no concentration beside the values);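 active = most replicates above 75%; inconclusive = exactly half above 75%; inactive = most below 75%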;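 note: all wells also contain fluconazole at 8 µg/ml as a sub-toxic cotreatment; 0% = median of DMSO wells and 100% = median of geldanamycin control wells; wells of about 8 µL received 7.5 nL stock; the first replicate is given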
UCH37 DUB inh – inhibitors of human deubiquitinating enzyme UCH37. Q9Y5K5. purified proteasome/UCH37, Ub-AMC cleavage fluorescence. inhibition, % (no concentration beside the values). 330,000 compounds, 0.33% hits. AID 588478;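 active = mean of two replicates above 20%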;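 note: 0% = compound-free wells with enzyme and 100% = wells lacking proteasome; stock transfer was 100 nL into about 20 µL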
Target sequence (Q9Y5K5 whole entry, looked up): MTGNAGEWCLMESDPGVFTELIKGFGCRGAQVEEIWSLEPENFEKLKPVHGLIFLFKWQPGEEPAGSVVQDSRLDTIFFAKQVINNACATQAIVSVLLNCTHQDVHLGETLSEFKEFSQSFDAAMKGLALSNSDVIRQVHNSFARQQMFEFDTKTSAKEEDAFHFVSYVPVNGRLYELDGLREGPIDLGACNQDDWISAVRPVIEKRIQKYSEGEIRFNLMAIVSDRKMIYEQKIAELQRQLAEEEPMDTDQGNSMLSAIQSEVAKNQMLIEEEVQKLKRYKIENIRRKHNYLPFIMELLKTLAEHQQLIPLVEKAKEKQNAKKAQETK
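Material: Human UCH37 enzyme supplied as purified proteasome complex | Schedule: 30 min compound-proteasome preincubation then 25 min substrate reaction, room temperature | Detection: AMC fluorescence from Ub-AMC cleavage, excitation 355 nm, emission 460 nm | Benchmarks: Wells without proteasome as full block, compound-free enzyme plus substrate as uninhibited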
The depositor's hits bear a star; ? = inconclusive; · = not tested or not shown.

entry	SMILES	Bfl-1 A1 inh	LANA-H2B inh	UCH37 DUB inh	T cruzi inh	Beta2AR agonist	Beta cell apopt	Calb FLC	RanGTP-Impb inh
1	Cc1cc(Oc2nc3c(C)cccn3c(=O)c2/C=C(\C#N)S(=O)(=O)c2ccc(Cl)cc2)ccc1Cl	0.3	-0.6	-4.0	-12	13	44	-5	3.1
2	COc1c(F)c(F)c(C(=O)Nc2ccccc2N2CCN(C(C)=O)CC2)c(F)c1F	0.1	-1.0	6.3	5	1	-3	-7	-0.6
3	C=CCNc1nc(Nc2ccc([N+](=O)[O-])cc2)nc(N2CCCC2)n1	1.2	10	6.3	7	12	-2	22	-1.5
4	Cc1oc2c(C)c(O)ccc2c(=O)c1-c1cnn(-c2ccccc2)c1	-0.6	2.8	5.8	19	-9	3	-8	-0.7
5	COCCN(C(=O)Cn1nnc2ccccc21)C(C(=O)NC1CCCCC1)c1ccc(OC)cc1OC (stereo not given)	-0.7	2.8	0.8	-25	10	1	15	4.2
6	CC(Sc1nc(-c2ccco2)nc2c1c(=O)n(C)c(=O)n2C)C(=O)O (stereo not given)	-0.5	2.3	13	-10	2	-3	12	1.2
7	Cc1ncc(CN2CCCC(CCC(=O)NCc3ccc(F)c(F)c3)C2)s1 (stereo not given)	0.8	-7.3	2.7	61*	2	-5	-4	0.5
8	CS(=O)(=O)N(CC(=O)NCCC1=CCCCC1)c1ccc2c(c1)OCO2	0.3	2.0	2.8	-10	-10	2	-11	-0.4
9	O=C(O)CCN1C(=O)c2ccc(NC(=O)c3cccs3)cc2C1=O	-0.5	-0.2	-316	-14	-2	-3	4	4.8
10	Cc1nc2cc(NC(=O)c3ccc(N4C(=O)CCC4=O)cc3)ccc2s1	0.0	2.9	2.0	5	7	-3	-37	1.4
11	Cc1ccc(S(=O)(=O)N2CCC3(CC2)OCCN3S(=O)(=O)c2cccs2)cc1	1.2	0.3	6.1	0	2	·	3	-1.8
12	O=C(COC(=O)c1ccccn1)Nc1ccc2c(c1)OCCO2	0.5	3.0	0.3	·	1	-1	·	·
13	Cc1noc(C)c1C(=O)NC(C)C12CC3CC(CC(C3)C1)C2 (stereo not given)	0.0	-4.1	2.2	-19	-1	0	-10	2.2
14	Cc1ccc(S(=O)(=O)N(C)c2c(C)ccc(S(N)(=O)=O)c2C)cc1	1.4	1.5	0.5	·	6	-5	-14	2.4
15	CC(=O)Nc1nc(-c2ccc3c(c2)CCN3C(=O)C2CC2)c(C)s1	0.0	1.9	0.2	-13	-13	9	3	-0.5
16	CCc1ccc(C(=O)NNC(=O)CN2C(=O)NC3(CCCC3)C2=O)cc1	1.3	-9.0	5.4	·	3	-7	·	·
17	COc1ccc(NC2=C3CC(C)CC=C3N(c3ccc(OC)cc3)C2=O)cc1 (stereo not given)	1.6	3.5	-0.5	-14	-2	-3	-48	-0.3
18	CCCN(CC(=O)Nc1ccccc1OC)C(=O)Cn1[nH]c(=O)c2ccccc2c1=O	-0.1	2.5	2.1	·	-1	-4	·	·
19	COC(=O)c1cccc(NC(=O)c2cccnc2)c1	0.2	-6.1	1.8	-7	-6	-2	-1	2.6
20	COc1ccc(N(CC(=O)N/N=C/c2cccs2)S(=O)(=O)c2ccccc2)cc1	0.2	1.2	·	12	-14	-4	1	6.4
21	O=C1NC(c2ccncc2)C(C(=O)c2cccs2)C(O)(C(F)(F)F)N1 (stereo not given)	0.5	2.2	1.2	-2	0	-3	3	-1.9
22	CC1(c2nnc(-c3ccncc3)o2)CC(c2c(Cl)cccc2Cl)=NO1 (stereo not given)	0.8	2.2	-0.3	4	-6	1	-1	-0.2
23	COc1cc(C(=O)N2CCCN(C)CC2)cc(OC)c1C	1.1	1.0	-0.3	-9	16	-14	-14	-2.3
24	C/C(=C\c1ccco1)C1C(C#N)=C(N)Oc2n[nH]c(-c3ccc(C)cc3)c21 (stereo not given)	0.3	1.2	5.5	-28	0	-20	-3	0.4
25	CCCC/C(O)=C1\C(=O)CC(C)(C)CC1=Nc1ccccc1OC	0.3	6.9	-0.8	20	0	-1	-4	3.4
26	CNC(=S)NNC(=O)c1cccn(Cc2ccc(Cl)cc2Cl)c1=O	-0.2	0.9	3.1	-1	·	0	3	4.4
27	CCOc1ccc(C2SCC(=O)N2c2c(C)n(C)n(-c3ccccc3)c2=O)cc1 (stereo not given)	1.6	-2.4	-0.9	14	-2	-6	·	1.5
28	O=C(CNC(=O)c1ccncc1)N/N=C/c1ccc(O)cc1O	0.4	2.7	·	4	7	-3	-3	3.8
29	CC(=O)N1c2ccc(S(=O)(=O)N3CCC(C(=O)N4CCC(C)CC4)CC3)cc2CC1C (stereo not given)	-2.1	-7.8	2.5	29	-3	0	-4	1.6
30	CCCN(CCC)c1nc(N)nc(-c2cc(Cl)ccc2OC)n1	1.9	2.8	0.5	22	3	-2	-6	-1.1
31	CCOCCCNS(=O)(=O)c1ccc(NC(=O)CN2C(=O)c3ccccc3C2=O)cc1	-0.7	-0.9	1.6	-19	-3	3	5	-0.1
32	COC(=O)c1ccc(NC(=O)CN2C(=O)c3ccccc3S2(=O)=O)cc1	1.0	-2.8	2.5	-1	6	1	-26	0.7
33	O=C(CNC(=O)c1ccc2ccccc2c1)NCc1ccc(F)cc1	1.3	1.4	1.0	-3	1	·	4	3.8
34	CCOc1ccccc1-n1c(C)cc(C=O)c1C	0.6	2.9	0.1	-5	1	-6	-1	-2.6
35	O=C(CNC(=O)C1COc2ccccc2O1)N/N=C\c1ccc(Br)cc1 (stereo not given)	0.5	-6.0	·	8	3	1	7	3.6
36	C=CCNc1ncnc2c1[nH]c1ccccc12	-0.5	2.2	-6.2	14	4	5	-5	0.2
37	CCCNc1ccc(S(=O)(=O)N(CC)CC)cn1	0.1	2.6	-0.5	-3	6	1	2	3.5
38	Cc1ccccc1N1CCN(S(=O)(=O)CC23CCC(CC2=O)C3(C)C)CC1 (stereo not given)	0.2	-4.1	0.8	5	7	2	-2	?
39	CCOC(=O)C(NC(=O)CC)C(O)c1cccc([N+](=O)[O-])c1 (stereo not given)	-0.3	9.5	3.1	5	-3	-1	3	1.0
40	CN(C)c1ccc(C2C3CCCc4ccccc4C3=NN2C)cc1 (stereo not given)	0.0	2.8	-7.5	15	-4	2	-2	-0.1
41	O=C(CSc1ncn(-c2ccccc2)n1)NCc1ccccc1	1.2	-4.2	1.9	3	-8	-3	15	-3.3
42	CCc1nc(C)ccc1OCC(=O)N1CCc2c([nH]c3ccccc23)C1c1ccccn1 (stereo not given)	2.6	-5.5	-0.1	·	11	-1	72	1.2
43	O=C(NC1CCCC1)C(c1cccs1)N(C(=O)c1csnn1)c1ccccc1F (stereo not given)	-0.1	-4.9	2.6	-9	7	0	24	1.1
44	CCC(CO)Oc1cc(NCc2cccc(OC)c2)c2ncn(C(C)C)c2c1 (stereo not given)	1.0	3.7	5.7	·	2	-13	·	·
45	COc1ccccc1NC(=O)COC(=O)CN1C(=O)C(=O)c2ccccc21	-0.5	-7.5	4.2	3	-2	-2	-12	-1.7
46	Cc1ccc(NC(=O)CCS(=O)(=O)c2cccc3nonc23)cc1	1.1	3.4	·	-6	-11	-7	11	1.3
47	O=c1c(Cc2c(F)cccc2Cl)c(O)ccn1C1CCCCCC1	-1.6	-1.6	0.2	8	2	1	4	1.3
48	O=C(CN1C(=O)C2CC=C(Cl)CC2C1=O)Nc1ccc(C(=O)O)cc1 (stereo not given)	0.7	-2.5	-0.1	-16	1	4	-1	-1.2
49	O=C(N/N=C/c1ccoc1)c1cccc([N+](=O)[O-])c1	-1.0	-3.7	·	·	-9	1	0	·
50	CCOC(=O)c1nnn(-c2nonc2-n2cccc2)c1CN1CCC(C(=O)OCC)CC1	1.3	-4.2	5.4	40	-5	-2	3	0.7
51	Cc1ccc(C#N)c(SCc2cc3c(cc2Cl)OCO3)n1	0.8	5.3	-0.2	1	-12	-4	0	0.4
52	O=C1Cc2cc(S(=O)(=O)N3CCCCC3)ccc2N1	0.5	3.5	8.2	9	2	8	2	-6.9
53	CC(=O)C(=Cc1cc(C)n(-c2ccccc2)c1C)C(C)=O	-0.1	-1.6	7.9	-21	-7	3	25	0.5
54	CCOc1cc(C(=S)N2CCCC2)ccc1OC	2.1	-0.9	-0.4	-2	4	-6	10	0.4
55	O=C(CN1CCCCC1)NC(=O)NCc1ccccc1	0.3	0.1	0.6	5	6	-3	-1	2.1
56	COc1ccc(OC)c(C(=O)NC(CC(N)=O)c2ccc(NC(C)C)c([N+](=O)[O-])c2)c1 (stereo not given)	0.0	-3.4	0.6	-7	-8	-3	-1	-7.0
57	Cc1ccc(NC(=O)C(C)Sc2nc(=O)cc(N)n2-c2ccccc2)cc1 (stereo not given)	-0.9	-1.4	3.0	-20	-4	-10	-4	-1.0
58	N/C(=N\OC(=O)c1ccc(Cl)cc1Cl)c1ccccc1	0.4	-1.4	2.9	10	-4	4	4	2.2
59	CC(OC(=O)CCC(=O)c1cccs1)C(=O)Nc1ccccc1[N+](=O)[O-] (stereo not given)	0.3	-1.0	2.1	-12	-4	-2	9	5.5
60	O=C(NC1CC1)c1ccc(CS(=O)c2ccc(Br)cc2)o1 (stereo not given)	1.9	3.6	1.0	0	-8	-8	1	-0.3
61	O=C(C1=C[C@H](c2csc3ccccc23)C[C@H](OCc2ccc(CO)cc2)O1)N1CCN(Cc2ccc3c(c2)OCO3)CC1	0.0	-3.0	1.3	62*	8	8	8	-2.9
